High-throughput results: PubChem, ICCB-Longwood Screening Facility, Harvard Medical School
AID504770 = E. coli YBA685 growth inhibition, screen for V. cholerae RctB inhibitors; E. coli YBA685 rctB-dependent plasmid, OD600 growth, 3 h; active compounds read low; z-score (concentration not given with the values); hit rate 0.27% among 130,000;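 active = z-score under -2 on both plates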;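 note: wells of about 30 µL received 100 nL stock; score is relative to mean and SD of the test wells; the first replicate is given; strong numbers were not always called active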
CapD inh = blocks the Bacillus anthracis CapD enzyme | z-score (concentration not given with the values) | hit rate 0.23% among 140,000 | purified CapD enzyme, fluorescence intensity read-out; active compounds read low; some hits fall short of the stated cut;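 active = z-score under -4 in either of two replicates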;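 note: stock transfer was 100 nL into about 40 µL; score is relative to mean and spread of the plate; one replicate is shown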
Active calls of the source: *; nt = not tested or not shown; & = joins results of further samples. These rows are one share of the data, so the mix of outcomes need not match the whole.

mol	AID504770	CapD inh
CC1(C)OC(=O)N(CCC(=O)O)C1(C)O (stereo not drawn)	nt	-0.045
Cc1nc(NCCc2ccccc2)sc1C(=O)N(C)C	0.95	nt
COC(=O)C1=C(C)NC2=C(C(=O)c3ccccc32)C1c1ccc(OC)cc1 (stereo not drawn)	2	-0.85
Cc1ccc(C)c(S(=O)(=O)Nc2ccccc2C(=O)OCC(=O)c2cc(C)n(Cc3ccco3)c2C)c1	-0.35	nt
O=C(Nc1cccc(-c2nc3ncccc3o2)c1)c1ccc2c(c1)OCO2	0.5	0.56
CCCCCC(=O)N1CC(C)OC(C)C1 (stereo not drawn)	-0.65	0.12
O=C(c1cnc2c(c1)c(=O)nc1ccccn12)c1ccccc1O	-0.6	nt
CCCCCc1cc(O)c2c(c1)OC(C)(C)C1CCC(C)=CC21 (stereo not drawn)	nt	0.24
Cc1onc(-c2c(Cl)cccc2Cl)c1C(=O)Nc1ccccc1	nt	-0.16
CCCNc1ncnc2c1cnn2-c1ccccc1	1.6	-0.97
COc1cc(C(=O)N2CCN(Cc3ccccc3C(F)(F)F)CC2)cc(OC)c1OC	-0.35	-0.83
COc1cc(C2Nc3ccc4ncccc4c3C3=C2C(=O)CCC3)ccc1OC(C)=O (stereo not drawn)	0.25	1.3
COc1ccc(NC(=O)COC(=O)CC2Sc3ccccc3NC2=O)cc1 (stereo not drawn)	-0.2	nt
CCOc1cc(CO)ccc1OCC(=O)N1CCCCC1	-0.85	-0.1
O=C(Cn1nnc(-c2cccc(Cl)c2)n1)N1N=C(c2cccs2)CC1c1cccs1 (stereo not drawn)	-0.3	nt
CCOc1ccc(NC(=O)CCCN2C(=O)/C(=C\c3ccco3)SC2=S)cc1	0.15	-0.88
CCOC(=O)C1=C(CN2CCc3ccccc32)NC(=O)NC1c1ccccc1 (stereo not drawn)	0.2	-0.84
CCc1ccccc1NC(=O)CSc1nc2ccccc2n1CC(=O)N(C)C	0.15	nt
CCOC(=O)c1nc(Nc2ccc(F)c(Cl)c2)c2ccccc2n1	nt	0.42
Cc1c(-c2ccccc2)[n+](=O)c(-c2ccc(Br)cc2)c(C)n1[O-]	-0.65	-0.48
CCCC(C)(SCC(=O)O)SCC(=O)O	nt	-0.13
CN(C)C(=O)Cc1c[nH]c2ccccc12	-0.6	0.3
CCCN1CCC(NC(=O)c2cccc(Oc3ccccc3)c2)CC1	-0.4	0.99
CCCOC(=O)C1=C(C)NC2=C(C(=O)CC(c3ccc(Cl)cc3)C2)C1c1cc2c(cc1[N+](=O)[O-])OCO2 (stereo not drawn)	nt	0.28
CN(C)S(=O)(=O)c1ccc2nnn(OCc3ccccc3)c2c1	-0.05	nt

Full records from above:
CCOc1cc(CO)ccc1OCC(=O)N1CCCCC1 is listed as AID504770: -0.85; CapD inh: -0.1
CCOC(=O)C1=C(CN2CCc3ccccc32)NC(=O)NC1c1ccccc1 (stereo not drawn) is listed as AID504770: 0.2; CapD inh: -0.84

Further results.
mol	AID504770	CapD inh
O=C1C=CC(=O)N1c1ccc(N2CCCCC2)cc1	0.6	nt
Cc1ccc(NC(=O)CCNS(=O)(=O)c2ccc3c(c2)CCC(=O)N3)cc1	-0.15	-0.55
Cn1c(SCC(=O)c2ccc(O)cc2O)nnc1C(F)(F)F	-0.4	nt
N=C(N)SCc1cn(-c2ccccc2)nc1-c1ccc(Br)cc1	-1	-0.26
O=C(O)c1cccc(-n2c(=S)[nH]c3ccc(F)cc3c2=O)c1	nt	-0.82
COc1cc(C(O)c2cc(C(F)(F)F)cc(C(F)(F)F)c2)cc(OC)c1OC (stereo not drawn)	0.25	0.32
OCCNC(=S)NC12CC3CC(CC(C3)C1)C2	-0.8	-0.14
CCOC(=O)N1CCC2(CC1)C(C(=O)c1ccccc1)C2(C#N)C#N (stereo not drawn)	-0.25	nt
CCOC(=O)C1=NN(c2ccc(Cl)cc2)C2C(=O)N(c3ccccc3Cl)C(=O)C12 (stereo not drawn)	nt	14
COc1cccc(CNCC2CCCO2)c1OCC(=O)NC(C)(C)C (stereo not drawn)	-0.25	nt
O=C(OC/C=C/COCc1ccccc1)N1CCCN(c2nc3ccc(Cl)cc3s2)CC1	nt	0.28
CCn1cc(C(=O)NCCC(C)C)c(=O)c2cc(S(=O)(=O)N(C)C)ccc21	-0.1	-0.4
CC1CN(Cc2c(O)ccc3c(=O)c(Oc4ccc5ccccc5c4)c(C(F)(F)F)oc23)CC(C)O1 (stereo not drawn)	nt	-0.79
COc1ccccc1NC(=O)COc1ccc(/C=N/n2cnnc2)cc1OC	-1.1	0.36
CC1CC(=O)Nc2ccccc2N1C(=O)CSc1ccc2c(c1)OCCCO2 (stereo not drawn)	0.3	nt
COC(=O)Nc1nc2ccc(C(=O)c3cccs3)cc2[nH]1	0.65	0.015&14
O=C(CCCOc1ccc(Cl)cc1Cl)Nc1ncn[nH]1	nt	0.055
COC(=O)c1sccc1NC(=O)c1cc(-c2ccc(OC)c(OC)c2)nc2ccccc12	nt	0.12
CCN(Cc1nc2cc(OC)c(OC)cc2c(=O)[nH]1)C(=O)NC(C)(C)C	-0.25	nt
N#Cc1c(NC(=O)c2cc3cc(Br)ccc3oc2=O)sc2c1CCCC2	nt	0.81
CCOc1cc2oc(=O)cc(C)c2cc1OCC	0.1	100
Cc1cc(Sc2ncccc2[N+](=O)[O-])c(Cl)cc1Cl	nt	0.03
Fc1ccc(-c2ccc(/C=N/n3cnnc3)[nH]2)cc1	1.5	1.5
CCn1c(SCc2ccccc2)nnc1C1CCCCC1	-0.2	nt
Cc1cc2[nH]c(=O)c(=O)[nH]c2cc1S(=O)(=O)N(C)C1CCCCC1	-0.45	51

Next entries follow:
| structure | AID504770 | CapD inh |
| --- | --- | --- |
| Cc1nc(NC2CCN(CC(=O)Nc3ccc4c(c3)OCCO4)CC2)[nH]c(=O)c1C | 1.6 | nt |
| CCOCCCNC(=O)c1c[nH]c2ccc(S(=O)(=O)N(C)c3ccc(Br)cc3)cc2c1=O | nt | 4.1 |
| CCCOc1ccc(NC(=O)C2CC(=O)N(C(C)C)C2)cc1 (stereo not drawn) | -0.2 | -0.16 |
| Clc1ccc(-n2ncc3c(N4CCN(c5ccccc5)CC4)ncnc32)cc1 | nt | -0.42 |
| N#Cc1cc(C#N)c(SCc2cc3c(cc2Br)OCCO3)nc1N | 0.85 | nt |
| O=C(O)COc1ccc2nccnc2c1 | -0.4 | nt |
| C=CCN1C(=O)C2C3c4ccccc4C(c4ccccc43)C2C1=O (stereo not drawn) | nt | -0.15 |
| CC(=O)c1ccc(NC(=O)CSC2=C(C#N)C(c3ccc(C)o3)C3=C(CCCC3=O)N2)cc1 (stereo not drawn) | nt | 0.05 |
| Cc1cc(N=Cc2c(O)ccc3ccccc23)no1 | -0.75 | -1.4 |
| COc1cccc(C(=O)NNC(=O)c2ccccc2N)c1 | nt | 5.3 |
| COc1ccc(CN2C(=O)c3ccccc3CC2(C)C(=O)NC2CCCCC2)cc1 (stereo not drawn) | 1.2 | -0.47 |
| Cc1nn(-c2ccccc2)nc1C(=O)Oc1c(Cl)cccc1Cl | 1.8 | -0.8 |
| Cc1ccc2cc(NC(=O)C3CC(=O)N(Cc4ccc(F)cc4)C3)ccc2n1 (stereo not drawn) | -0.1 | 12 |
| O=c1cc(C(F)(F)F)nc(-c2ccccc2OC(F)(F)F)[nH]1 | 0.05 | -0.095 |
| C/C(=N/NC(N)=S)C1C(=O)c2ccccc2C1=O | -0.55 | nt |
| Cc1ccc(-c2csc(=S)n2CC(=O)O)cc1 | 0.05 | -1.1 |
| COc1nc(N(C)C)nc(N(C#N)CCOc2ccccc2)n1 | nt | -0.39 |
| C=CCNCCOc1cccc(CC)c1 | -0.4 | -0.18 |
| CC(C)(C)CC(C)(C)NC(=O)c1cccs1 | nt | 0.29 |
| Cc1cc2nc(SCCOC(=O)Nc3ccc(Cl)cc3)nc(C)c2cc1C | -0.2 | 6.1 |
| Cc1ccc(NC(=O)c2cc(S(=O)(=O)N3CCc4ccccc4C3)ccc2F)cc1C | nt | -0.57 |
| COc1ccccc1NCn1c(=O)sc2ccccc21 | 1.4 | 1.1 |
| CCS(=O)(=O)c1ccc(O)c(N=Cc2c(O)[nH]c(=S)[nH]c2=O)c1 | 2.8 | nt |
| COc1ccc(C(=O)c2ccccc2C(=O)O)cc1 | nt | -0.03 |
| CCN(Cc1cc(Cl)cc(Cl)c1)C(=O)c1cnc(OC)cc1C(F)(F)F | -0.15 | 0.39 |
| C/C(=N\O)c1ccc(Cl)cc1 | -0.6 | 0.23 |
| CCOC(=O)Cn1cc(S(=O)(=O)N2CCC(C)CC2)c(S(=O)(=O)N2CCC(C)CC2)c1 | 0.05 | 0.17 |
| CN(CC1COc2ccccc2O1)C(=O)c1ccc(Cl)cc1Cl (stereo not drawn) | 1 | nt |
| Cc1nc(OCC2CN(Cc3ccccc3)CCO2)c2ccccc2n1 (stereo not drawn) | 0.25 | nt |
| O=C(Nc1c2c(nn1-c1cccc(Cl)c1)CS(=O)C2)c1cccc(Br)c1 (stereo not drawn) | nt | -0.34 |
| CCc1ccc(NC(=O)CCn2c(=O)c3cccn3c3cccnc32)cc1 | -0.25 | 6.7 |
| Clc1nc2ncccc2nc1-c1ccccc1 | -0.3 | -2.6 |
| O=C(CSc1nc2ccccc2c(=O)n1NC(=O)c1ccccc1)c1ccc(F)cc1 | nt | 0.48 |
| NC(=S)n1[nH]c(-c2ccccc2)c(N=Nc2ccccc2O)c1=O | -0.1 | -1.3 |
| O=C(N/N=C/c1cc2c(cc1Br)OCO2)c1ccc(CN2CCOCC2)cc1 | 1.9 | 0.15 |
| O=c1c2ccccc2c(C=NCc2cccnc2)c(O)n1-c1ccccc1C(F)(F)F | -0.75 | -0.34 |
| CCC(C)(C)NC(=O)c1sccc1Oc1ccc(F)cc1[N+](=O)[O-] | nt | -0.77 |
| COc1cc(C2C3=C(CC(C)(C)CC3=O)OC3=C2C(=O)CC(C)(C)C3)ccc1OC(=O)CNc1ccc2c(c1)OCO2 | nt | 0.16 |
| Fc1ccc(-c2ccc(CNCCCSc3ncccn3)o2)cc1Cl | -0.45 | nt |
| N#CC1(c2ccccc2)CCN(S(=O)(=O)c2ccc(OC(F)(F)F)cc2)CC1 | 0.6 | 0.44 |
| COC(=O)c1ccc(COC(=O)C2CC(=O)N(Cc3ccco3)C2)cc1 (stereo not drawn) | 0.05 | nt |
| NC(=O)C1CCN(C2CCN(C(=O)c3cccn4c(=O)c5ccc(Cl)cc5nc34)CC2)CC1 | -0.15 | -0.095 |
| COc1ccc(C(=O)OCc2cc(=O)n3cc(C)ccc3n2)c(OC)c1OC | -0.75 | nt |
| N#Cc1ccc(-c2ccc(Cl)c(Cl)c2)nc1Oc1ccccc1Cl | nt | -0.45 |
| O=C(NCc1ccc2c(c1)OCO2)C1CCN(c2ccc(S(=O)(=O)N3CCCC3)cc2)CC1 | -0.65 | nt |
| CS(=O)(=O)NCCc1ccc(C(=O)O)s1 | -0.35 | nt |
| Cc1cc(C)nc(SCC2=NC(C)(C)Cc3ccccc32)n1 | -0.1 | 0.02 |
| COC(=O)c1sccc1S(=O)(=O)N1CCN(C2c3ccccc3-c3ccccc32)CC1 | 0.65 | 0.66 |
| COc1ccc(C(=O)NCc2nnc(SC(C)C)n2-c2ccccc2)cc1 | -1 | -0.59 |
| COc1ccc(CNCc2cc(OC)c(OC)c(OC)c2)cc1 | nt | -0.56 |

Some of the entries so far, with two lines to a compound:
Order of values – AID504770 | CapD inh
> C/C(=N\O)c1ccc(Cl)cc1
 : -0.6 | 0.23
> CCOC(=O)Cn1cc(S(=O)(=O)N2CCC(C)CC2)c(S(=O)(=O)N2CCC(C)CC2)c1
 : 0.05 | 0.17

Arranged by molar mass (descending): some entries from above.
| structure | AID504770 | CapD inh |
| --- | --- | --- |
| COC(=O)c1sccc1S(=O)(=O)N1CCN(C2c3ccccc3-c3ccccc32)CC1 | 0.65 | 0.66 |
| COc1ccc(C(=O)OCc2cc(=O)n3cc(C)ccc3n2)c(OC)c1OC | -0.75 | nt |
| CN(CC1COc2ccccc2O1)C(=O)c1ccc(Cl)cc1Cl (stereo not drawn) | 1 | nt |

Later entries
| structure | AID504770 | CapD inh |
| --- | --- | --- |
| CN1CCN(S(=O)(=O)c2ccc(Oc3cccc(Cl)c3C#N)cc2)CC1 | nt | -0.66 |
| C/C(=C/C(=O)O)C(=O)Nc1ccccc1F | 0.15 | nt |
| CC(C)(C)c1ccc(S(=O)(=O)Nc2ccc3[nH]c(C(C)(C)C)cc3c2)cc1 | nt | -0.67 |
| NC(N)=NS(=O)(=O)c1ccccc1 | -0.15 | nt |
| O=C1OC(c2ccccc2Br)=N/C1=C\N1CCN(c2ccc([N+](=O)[O-])cc2)CC1 | nt | 0.26 |
| CC(C)(C)S(=O)(=O)c1ccc(-c2ccccc2)cc1 | 0.2 | 0.33 |
| CC1=C(CC(=O)N2CCC(C(N)=O)CC2)c2cc(F)ccc2/C1=C\c1ccc(S(C)=O)cc1 (stereo not drawn) | nt | -2.1 |
| O=S(=O)(Nc1ccc(-c2ccno2)cc1)c1ccc2[nH]c3c(c2c1)CCCC3 | 2.5 | -1.7 |
| Nc1noc2oc3nc(-c4ccncc4)cc(C(F)(F)F)c3c12 | 0.5 | -1.1 |
| Cc1ccccc1CN1CCN(CC(=O)N(C)C2(C#N)CCCCC2)CC1 | -0.1 | nt |
| Cc1ncc(CO)c(/C=N/NC(N)=S)c1O | 0.05 | 1.9 |
| O=C(Nc1cccc(F)c1C(=O)Nc1ccc(F)cc1F)c1cccs1 | nt | 11 |
| CC(CC(=O)O)(C(=O)O)c1ccccc1 (stereo not drawn) | -0.15 | 0.34 |
| COc1ccc(C2CC(C(F)(F)F)n3nc(C(=O)Nc4cccc(Cl)c4)cc3N2)cc1 (stereo not drawn) | nt | 0.29 |
| CN(C)C(C(=O)O)c1ccc(Cl)cc1 (stereo not drawn) | -0.6 | nt |
| N#CCCn1c(SCC(=O)c2ccc(Cl)s2)nc2ccccc21 | 1.1 | nt |
